D2 ag: activates the human D2 dopamine receptor; P14416; DiscoveRx PathHunter D2 beta-arrestin, luminescence, 90 min; 100% = 57 uM dopamine signal; activation, % (no concentration beside the values); 360,000 compounds, 0.084% hits; AID 624465; in the data active = activation above about 40%; inconclusive = about 15% to 40%; inactive = below about 15%; further: compound concentration not given in the record; the text of the record calls up to 30% inactive
Target sequence (P14416 whole entry, looked up): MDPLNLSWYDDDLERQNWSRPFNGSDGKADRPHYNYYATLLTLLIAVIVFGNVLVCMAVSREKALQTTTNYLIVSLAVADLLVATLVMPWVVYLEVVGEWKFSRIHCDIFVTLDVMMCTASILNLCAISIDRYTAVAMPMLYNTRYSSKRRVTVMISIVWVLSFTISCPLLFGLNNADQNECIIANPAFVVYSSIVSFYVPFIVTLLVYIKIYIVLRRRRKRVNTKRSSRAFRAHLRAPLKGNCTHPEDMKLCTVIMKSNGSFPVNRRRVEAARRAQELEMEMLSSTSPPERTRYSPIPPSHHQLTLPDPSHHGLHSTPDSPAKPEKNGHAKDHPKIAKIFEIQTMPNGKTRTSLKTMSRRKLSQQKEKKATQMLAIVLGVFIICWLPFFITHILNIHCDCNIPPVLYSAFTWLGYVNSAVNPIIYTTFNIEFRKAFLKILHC
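Agonist mode: compounds alone added to overnight-plated D2 PathHunter cells for 90 min at 37 C, with 57 uM final dopamine (EC100) defining full response. Beta-arrestin recruitment detected by chemiluminescent reagent, read after 1 h at ambient temperature.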
D2 potentiator: human D2 receptor positive allosteric modulation; P14416; DiscoveRx D2 beta-arrestin cells, luminescence, 90 min; 100% = 57 uM dopamine signal; potentiation, % (no concentration beside the values); 360,000 compounds, 0.23% hits; AID 624464; active = potentiation of 50% or more; inconclusive = 30% to 50%; inactive = 30% or less;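 further: compound concentration not given in the record; tested on top of an EC20 dose of dopamine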
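PathHunter D2 cells, attached overnight at 37 deg C, received compound in DMSO plus dopamine at EC20 (50 nM final) for 90 min at 37 deg C. Beta-arrestin recruitment was read as luminescence after 1 h with detection reagent at ambient temperature.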
Six1-Eya2 inh: blocks human Six1 binding to Eya2; 360,000 compounds, 0.56% hits; AlphaScreen GST-Six1/His-Eya2 binding, biochemical; stronger effect = lower value; control for the full effect not named in the record; Q15475+O00167; activity change, % (test concentration not listed); in the data active = activity change below about -65%; inconclusive = about -30% to -65%; inactive = above about -30%; further: on the % scale 0 is the no-effect control and ±100 the full control effect
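Homogeneous AlphaScreen proximity assay pairing GST-Six1 with His-tagged Eya2 (added as 5X mix: 250 nM and 500 nM) in 50 mM Tris pH 8.0, 300 mM NaCl, 1 mM TCEP. Glutathione donor and nickel acceptor beads; 1 h, 37 °C, dark.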
CtBP-E1A inh: blocks the CtBP interaction with E1A; AID 651724; activity change, % (no concentration beside the values); AlphaScreen GST-E1A/His-CtBP binding, 1536-well; stronger effect = lower value; control for the full effect not named in the record; 340,000 compounds, 0.49% hits; in the data active means activity change below about -65%; inconclusive means about -30% to -65%; inactive means above about -30%; further: on the % scale 0 is the no-effect control and ±100 the full control effect
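GST-E1A and His-tagged CtBP (125 nM each as 5X stock) were preincubated with pin-transferred compound for 2 h at 37 °C in the dark, then glutathione donor and nickel acceptor beads were added for 1 h before AlphaScreen reading.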
gsp agonist: agonists of gsp mutant (McCune-Albright syndrome). gsp mutant cells, cAMP HTRF, 30 min; control for the full effect not named in the record. 340,000 compounds, 0.13% hits. Potency, µM (titrated, usually from 76.9 µM), for inactives: top-dose activation (cAMP increase), most hits filed as activators. AID 624287; active = well fitted activation curve with a large enough effect; inconclusive = small, poorly fitted or top-dose-only effect, or another doubt; inactive = no such curve, though single readings can be large or run the other way; cell line not stated here;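 further: phosphodiesterase inhibitor Ro 20-1724 added with compounds to block cAMP breakdown; potency means the concentration at half of the fitted maximal effect; nearly all actives have a fitted effect of over 60% in size; about a fifth of the inactives were tested at one dose only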
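Cells stably selected in G418 were plated at 2000/well, grown 16-24 hr, then given compounds in DMSO with the PDE inhibitor […] (300 uM solution added) for 30 min at 37C; cAMP was read by HTRF.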
gsp antag: antagonizes gsp, the McCune-Albright syndrome mutation. 340,000 compounds, 0.4% hits. Potency, µM (top dose mostly 76.9 µM), without a hit: at the highest dose activity change, negative = inhibition, most hits filed as inhibitors. gsp-mutant cells, cAMP HTRF, 30 min; control for the full effect not named in the record; active = falling curve of any shape with a large fitted effect; inconclusive = falling curve, mostly with a smaller effect; inactive = flat or rising curve; cell line not stated here;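 further: intracellular cAMP measured with PDE inhibitor Ro 20-1724 present during compound exposure; potency means the concentration at half of the fitted maximal effect; on the % scale 0 is the no-effect control and ±100 the full control effect; nearly all actives have a fitted effect of over 65% in size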
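HTRF cAMP measurement after 30 min RT detection following 30 min, 37C compound treatment alongside […] (added as 300 uM solution) in G418-selected cells seeded at 2000/well and grown 16–24 h.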
* hit, by the source's call; u = inconclusive; x = no result given; [ ] = dose if it differs, or a comment.

SMILES	D2 ag	D2 potentiator	Six1-Eya2 inh	CtBP-E1A inh	gsp agonist	gsp antag
COc1ccc(N2CCN(C(=O)COC(=O)c3ccc(OC(F)F)cc3)CC2)cc1	6.3	-4.7	0.4	-8.2	u	12.6%
CCC(=O)NCCc1nc2cc(NC(=O)c3ccccc3OC)ccc2n1C	-1.0	-0.6	24.9	45.8	-29.0%	-9.2%
C=CCN=Cc1c(C)[nH]n(-c2ccccc2)c1=O	-4.5	-6.4	5.5	4.4	1.0%	9.3%
N#Cc1ccccc1NC(=O)c1cc(=O)c2ccccc2o1	-2.1	-7.2	-6.8	0.0	-16.3%[15.4 µM]	-3.6%
Cc1ccc(C)c(NC(=O)COC(=O)CCNC(=O)c2ccco2)c1	-0.3	-1.7	2.2	7.2	-38.1%[inhibitor]	-0.1%
COc1ccc(CNC(=O)CC2C(=O)NCCN2CC(C)(C)C)c(OC)c1 (stereo not given)	-1.3	-1.2	-7.3	-12.5	u	4.6%
Cc1ccccc1CSCC(=O)NCCSc1ccccn1	-1.4	-9.9	0.7	5.8	6.7%[15.4 µM]	-26.9%
COc1ccc(-c2noc(CSc3nc(-c4ccccc4)cc(=O)[nH]3)n2)cc1OC	-2.1	-8.4	-7.0	4.9	-29.7%	5.5%
CCc1ccc2nc(SCC(=O)Nc3ccccc3N3CCOCC3)c(C#N)cc2c1	-1.0	3.0	11.6	4.0	1.0%[15.4 µM]	-8.0%
CCc1ccc(/C(C)=N/NC(=O)c2c[nH]c3ccccc23)s1	-1.5	-21.8	-19.3	-9.2	24.7%	-14.6%
COc1cccc(C2CC(c3cccs3)=NN2C(=S)Nc2ccccc2)c1OC (stereo not given)	-0.9	-4.4	-26.1	-17.6	0.0%	-12.7%
CC(NC(=O)C1CCCN(S(=O)(=O)N2CCOCC2)C1)c1ccccc1 (stereo not given)	-4.5	-23.8	1.7	-0.4	7.5%	12.1%
N#CC1=C(c2ccc(-c3ccccc3)cc2)COC1=O	0.6	-5.7	-1.8	x	3.1%[15.4 µM]	6.6%
CCOC(=O)c1c(C)[n+]([O-])c2ccc3c(non3O)c12	-0.4	-13.2	-29.1	7.8	-33.6%	u
O=C(Nc1nnc(-c2ccco2)s1)C1CC1	2.9	4.4	3.0	-6.0	-10.2%	7.7%
O=C(NCCN1CCOCC1)C1CCN(c2ncnc3c2sc2cccc(F)c23)CC1	-0.9	-8.1	0.1	-0.8	7.8%	-9.3%
O=C(Cc1cccc(NC(=O)C2CCN(C(=O)C3CCCC3)CC2)c1)Nc1cccc(C(=O)N2CCCCC2)c1	-5.3	-2.7	0.1	6.9	x	9.6%
O=C(NN1C(=O)C2C3C=CC(C3)C2C1=O)c1ccco1 (stereo not given)	2.9	21.9	2.3	3.9	-1.7%	4.8%
O=C(CCS(=O)(=O)Cc1ccccc1)Nc1ncc([N+](=O)[O-])s1	0.9	-12.8	5.5	8.7	34.7%	-13.8%
COc1ccccc1CN1CCCCCC1	1.7	-6.7	15.3	-10.7	-37.3%[15.4 µM]	4.5%
Cc1ccc2nc(NCC(N)=O)nc(-c3ccccc3)c2c1	-10.7	-4.3	-4.3	x	24.9%	-3.0%
COc1cccc(/C=C2\SC(=O)N(CCC(=O)NNC(=O)c3cccc(Cl)c3)C2=O)c1	-5.3	-1.4	1.4	-8.1	-1.4%[15.4 µM]	5.0%
Cc1cc(C)cc(N(CC(=O)NCCSCc2ccco2)S(C)(=O)=O)c1	-3.6	-2.6	-15.3	0.0	-0.9%	6.4%
COc1cc(/C=N/NC(=O)CCC(=O)Nc2ccc(Br)cc2)ccc1O	0.7	-9.9	-20.4	-0.2	-13.8%[15.4 µM]	4.6%
CCc1cc(C(=O)N=Nc2c(O)[nH]c3c(Br)cc(Br)cc23)c2ccccc2n1	-3.8	-12.9	3.0	-7.0	-0.7%[15.4 µM]	-4.3%
Cc1cc(C)c2c(N)c(C(=O)c3ccc(Cl)c(Cl)c3)sc2n1	-3.2	-3.3	-1.9	x	-28.7%	-3.7%
Nc1ccc(CSc2ccc(Cl)cc2)c(Cl)c1	-6.1	-1.9	4.6	22.5	-48.6%[inhibitor]	-9.2%
CC(C)Cc1ccc(/C=C/C(=O)N2CCOCC2)cc1	-4.3	-8.3	5.9	3.0	0.5%[15.4 µM]	-0.1%
C/C(=N\NC(=O)CCCOc1ccc(Cl)cc1C)c1ccc(C)o1	-1.4	-11.6	0.6	0.0	0.5%[15.4 µM]	-9.3%
COCCn1c(SCC(=O)Nc2ccc(C(N)=O)cc2)nc2c([nH]c3ccccc32)c1=O	2.4	2.1	-5.9	-13.4	-14.6%	6.4%
O=C(NCC1CCCO1)c1ccc2c(c1)N(Cc1ccccc1)C(=O)CS2 (stereo not given)	-0.3	-2.5	6.8	0.0	-5.8%	-7.5%
C=C(C)CSc1nnc(CCCCCNC(=O)OC(C)(C)C)o1	-5.4	-19.9	4.6	x	-3.0%	0.8%
C/C(O)=c1/cnc2nc3ccccc3n2c1=O	-0.1	-1.5	6.3	-1.7	-1.7%[15.4 µM]	-19.1%
CN(C1CCCCC1)S(=O)(=O)c1ccccc1	0.2	-2.5	6.5	4.1	-50.8%	7.6%
Cc1ccc(-c2cc(-c3ccccc3)c3c(N)c(S(C)(=O)=O)sc3n2)cc1	-2.9	4.8	37.6	40.6	34.5%	22.1%
COc1ccccc1NS(=O)(=O)c1ccc(Cl)c(NC(=O)c2sc3cc(Cl)ccc3c2Cl)c1	-4.6	-0.6	5.2	-0.2	-0.4%[15.4 µM]	5.3%
COc1ccc(N2C(=O)C(CC(=O)O)S/C2=C\C(C)=O)cc1 (stereo not given)	-0.1	-16.5	28.5	0.0	-10.0%	1.2%
O=C(O)CC/C(=C/c1cccc(NC(=O)c2ccccc2Cl)c1)c1nc2ccccc2s1	2.4	-3.7	-16.3	-12.0	11.1%	u
CCOC(=O)C1(N(CC)CC)Sc2cc(C)ccc2NC1=O (stereo not given)	-3.4	-4.0	-5.1	-2.5	-57.8%[inhibitor]	3.9%
COc1ccc(CCNC(=O)CC(Cc2ccccc2)C(=O)O)cc1OC (stereo not given)	-1.9	-3.8	-13.7	1.4	17.8%[15.4 µM]	13.1%
Cc1[nH]c(C)c(S(=O)(=O)Nc2cccc(Cl)c2C)c1C(=O)N1CCCC1	-2.7	-6.4	-3.1	-21.5	u	12.2%
CCOC(=O)c1c(-c2ccc(F)cc2)csc1NC(=O)c1c(-c2ccccc2)noc1C	2.6	-21.0	-7.8	16.3	-6.6%[15.4 µM]	-5.2%
CCCCc1nc2ccc(F)cc2cc1C	-3.0	-2.3	10.3	8.0	x	x
COc1ccc(S(=O)(=O)N2CCCCC2)cc1NC(=O)Cc1ccc(Br)cc1	2.7	-2.1	-0.4	0.8	-19.6%	10.1%
Cc1ccccc1-c1cccc([C@@H]2C[C@H]3CN(Cc4cccnc4)C(=O)[C@]34CCCN24)c1	-3.7	-10.3	-15.0	-12.6	-13.4%[15.4 µM]	0.0%
CCOC(=O)C1CCN(C(=O)C2CCN(S(=O)(=O)c3ccc4ccccc4c3)CC2)CC1	0.6	-25.3	14.3	6.1	-39.4%[inhibitor]	-26.6%
CCOC(=O)C1CCN(S(=O)(=O)c2cccc(-c3cn4ccccc4n3)c2)CC1	1.7	1.5	-20.2	-15.2	-15.0%	-32.6%
O=C(COc1cccc2ccccc12)Nc1nc2ccccc2[nH]1	1.0	-1.6	-1.5	-3.0	10.8%	-13.0%
Cc1ccc2nc(-c3ccncc3)cc(C(=O)Nc3ccc4c(c3)OCCO4)c2c1	-1.2	-1.5	-7.1	0.0	3.2%[15.4 µM]	-14.2%
Cn1c(=O)c2c(ncn2CC(=O)N/N=C/C=C\c2ccccc2[N+](=O)[O-])n(C)c1=O	-4.3	2.9	1.7	1.7	u	8.7%
CC1CCCC(C)N1CCCNC(=O)c1nn(C)c2c1CSc1ccccc1-2 (stereo not given)	3.3	-14.1	-5.9	-2.7	9.5%	26.4%
COc1ccc(S(=O)(=O)N(CC(=O)NCCSc2ccccn2)c2ccccc2)cc1	1.0	7.7	2.4	1.2	5.6%[15.4 µM]	-8.7%
Cc1cccc(NC(=O)[C@H](Cc2ccccc2)NC(=O)OCc2ccccc2)c1	-3.9	-23.7	-2.4	5.2	13.8%	11.8%
COc1ccccc1NC(=O)N1CCCC1C(=O)NCc1ccccc1F (stereo not given)	-1.4	-15.0	6.7	6.3	-26.4%	10.1%
COc1ccc(C(=O)N2CCN(Cc3ccc4c(c3)OCO4)CC2)cc1OC	3.0	13.0	1.6	x	-41.3%[inhibitor]	6.8%
CCOC(=O)CC1C(=O)NCCN1C(=O)c1ccc(F)cc1F (stereo not given)	-0.4	-12.8	10.6	16.6	u	13.8%
NC(=O)c1ccc(-n2nnnc2Oc2ccc(Br)cc2)cc1	2.5	9.8	6.6	-9.0	8.7%[15.4 µM]	4.8%
Cc1[nH]c2ccccc2c1C(=O)CSC(=S)N1CCCCC1	2.7	u	-10.2	-1.5	-25.9%	-14.4%
O=C(Nc1ccccc1)Nc1cccc2ccccc12	-0.6	-4.9	6.2	-10.3	3.1%[15.4 µM]	0.3%
CCCn1c(=O)c2c(nc3n2CC(C)CN3Cc2ccccc2)n(C)c1=O (stereo not given)	-0.4	-8.8	-6.6	x	-2.5%	-4.5%

Fetched by compound from the list above:
SMILES	D2 ag	D2 potentiator	Six1-Eya2 inh	CtBP-E1A inh	gsp agonist	gsp antag
Cc1cccc(NC(=O)[C@H](Cc2ccccc2)NC(=O)OCc2ccccc2)c1	-3.9	-23.7	-2.4	5.2	13.8%	11.8%
COc1ccccc1NC(=O)N1CCCC1C(=O)NCc1ccccc1F (stereo not given)	-1.4	-15.0	6.7	6.3	-26.4%	10.1%
NC(=O)c1ccc(-n2nnnc2Oc2ccc(Br)cc2)cc1	2.5	9.8	6.6	-9.0	8.7%[15.4 µM]	4.8%
CC1CCCC(C)N1CCCNC(=O)c1nn(C)c2c1CSc1ccccc1-2 (stereo not given)	3.3	-14.1	-5.9	-2.7	9.5%	26.4%

Going on with the list:
SMILES	D2 ag	D2 potentiator	Six1-Eya2 inh	CtBP-E1A inh	gsp agonist	gsp antag
COc1ccc(NC(=O)c2oc3ccc(S(=O)(=O)N4CCOCC4)cc3c2C)cc1	6.7	4.0	-8.8	x	-42.1%[inhibitor]	-22.0%
CCCCC(=O)Nc1ccc(NC(=O)c2cccs2)cn1	1.6	12.5	4.1	5.7	-19.6%	-10.0%
O=c1cc(CO)oc(CN2CCN(Cc3ccccc3)CC2)c1O	-3.2	-2.8	1.0	-0.2	3.3%	17.0%
O=C(COC(=O)c1nsc(Cl)c1Cl)NC1CCCC1	2.1	-3.4	-0.7	5.3	-20.4%	5.4%
OCC1(Cc2ccccc2C(F)(F)F)CCN(Cc2ccc3c(c2)CCO3)CC1	-3.8	-24.1	0.8	4.3	1.3%	1.3%
CN(CC(=O)N1CCCCC1)S(=O)(=O)c1cccc2cccnc12	-5.2	-5.0	0.6	1.0	-2.1%	-17.4%

High-throughput results as filed in PubChem BioAssay.
